NPYLR7 ag: activates Aedes aegypti NPYLR7 receptor; activation, % at 10 µM; actives 0.15% (n = 270,000); AID 1259423; HEK293T NPYLR7/Galpha15, GCaMP6s calcium fluorescence; in the data active means activation above about 40%;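 further: 0% = vehicle and 100% = reference agonist at the receptor; some compounds past the cut are filed as inactive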
NPYLR7 ag max-min: also measured in NPYLR7 ag; calls as there; activation, %; measured here: Max-Min RFU normalised activation; some inactives read as strong as hits;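 span of the calcium signal over five minutes; 0% = vehicle and 100% = native peptide agonist; compound fluorescence can raise it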
The depositor's hits bear a star; & = joins results of further samples.

Below each compound: NPYLR7 ag	NPYLR7 ag max-min
Cc1cc(C)nc(Sc2nc([N+](=O)[O-])nn2C)n1
 : 11	1
COC(=O)c1coc(CN2CCCC2c2nc3ccccc3s2)n1 (stereo not given)
 : -4	-5
CC(N)CC(=O)NCc1cccnc1Oc1cccc(C(F)(F)F)c1 (stereo not given)
 : -8	-15
COc1ccccc1N1CCN(C(=O)c2ccc(N(C)C)cc2)CC1
 : -1	-4
CCCOc1cccc(C(=O)N2CCC(Nc3cc(OC)cc(OC)c3)CC2)c1
 : 0	1
Cc1cc(C)nc(N/N=C\c2ccccc2)n1
 : -4	-11
COc1ccccc1NC(=O)N(Cc1ccsc1)C1CC1
 : -2	-3
Cc1ccc(NC(=O)N2CCCC(OCc3cccc(Cl)c3)C2)cc1 (stereo not given)
 : -4	-3
Cn1ncc(C(=O)N(Cc2ccco2)Cc2nc3cc(Cl)ccc3o2)c1Cl
 : 8	1
CC(C)(C)c1cc(-c2n[nH]c(=S)n2-c2cccc3ncccc23)n[nH]1
 : -11	-20
COc1ccc(NC(=O)CCc2c(C)nc(SCC(N)=O)nc2C)c(OC)c1
 : -18	-17
NS(=O)(=O)CCN1CCN(c2cc(F)ccc2F)CC1
 : 2	-1
O=C(Cn1nc2c(c1NC(=O)C1CC1)CSC2)NCCc1ccccc1
 : -3	-2
CCn1cccc(-c2nnc(SCC(=O)Nc3ccc(C)cc3C)n2C)c1=O
 : -1	-4
COc1ccc(Cl)c2sc(N(Cc3cccnc3)C(=O)c3cc(C)no3)nc12
 : -2	0
Cc1cnn(-c2ccc(NC(=O)c3cc(C#N)c[nH]3)cc2F)c1
 : 0	-1
Cc1ccc(Nc2ccc(N3CCN(C(=O)CC(C)C)CC3)nn2)cc1
 : 5	6
CCCCOC(=O)c1cc(-c2ccc(/C=C3\NC(=S)NC3=O)o2)ccc1Cl
 : 3	12
Cc1cc(C)cc(NC(=O)CSc2nc(=O)n(CCCN3CCOCC3)c3c2CCC3)c1
 : -2	-3
O=C(Cn1nc2c(c1NC(=O)COc1ccccc1F)CSC2)NCC1CCCO1 (stereo not given)
 : -5	-4
COc1cc(CSc2ncnc3c2nnn3C)cc(OC)c1
 : 1	5
CCCS(=O)(=O)N(C)C(=O)CCc1cccc(Cl)c1
 : 2	-2
Cc1cc(C)nc(NS(=O)(=O)c2ccc(NC(=O)C34CC5CC(CC(C5)C3)C4)cc2)n1
 : 5	3
O=C(CSCc1nnnn1C1CC1)N1CCCC1c1cccs1 (stereo not given)
 : 2	1
CC(=O)N1CCN(C(c2ccccc2)c2ccc(F)cc2)CC1 (stereo not given)
 : 23	10
Cc1cc(NC(=O)CSc2ncn(-c3ccccc3)n2)no1
 : 6	2
COc1ccccc1CNC(=O)c1nnn(Cc2ccccc2)c1N
 : -3	2
CC(=O)N1CCN(c2cc(Cl)nc(SCC(=O)NCc3ccccn3)n2)CC1C (stereo not given)
 : 1	11
Cc1nn(-c2cccc(Cl)c2)c(C)c1C(=O)NCc1ccccn1
 : -2	6
Cc1cccc(N2CCCn3c2nc2c3c(=O)n(CC(=O)OCc3ccccc3)c(=O)n2C)c1C
 : 1	7
CSc1nnc(C)c(=O)n1COC(=O)COc1ccc(Cl)cc1Cl
 : -3	-7
COc1ccccc1C(=O)N1CCC(n2nccc2NC(=O)c2ccccc2C)CC1
 : 0	-3
O=C(/C=C/c1ccccc1)N1CCN(C(C(=O)N2CCOCC2)C2CCCC2)CC1 (stereo not given)
 : -5	-1
CCCCNC(=O)CN1CN(c2ccccc2)C2(CCN(S(=O)(=O)/C=C/c3ccccc3)CC2)C1=O
 : 14	14
CC=CCn1c(=O)c2c(nc3n(CC(=O)OCC)c(C)c(C)n23)n(C)c1=O
 : 1	8
COc1ccc(N2C(=O)C3N=NN(Cc4cc(C)ccc4C)C3C2=O)cc1Cl (stereo not given)
 : 0	-6
O=c1cc(-c2ccccc2)[nH]n1-c1cccc(Cl)c1
 : -14	-24
CS(=O)(=O)n1c(SCc2cccc(Br)c2)nc2ccccc21
 : 3	-1
Cc1cc(C(=O)Cn2cnc3sc4c(c3c2=O)CCC4)c(C)n1C1CC1
 : 1	9
CC(C)N(Cc1cc(NC(=O)c2cccc(F)c2)ccc1N(C)C)C(=O)CC(C)(C)C
 : 24	28
COc1cccc(C2CC(c3ccc(C)cc3C)=NN2C(=O)CN2CCc3ccccc3C2)c1 (stereo not given)
 : 19	18
CC1=C(C(=O)OCc2ccccc2)C2(C(=O)Nc3ccccc32)C(C(=O)OCc2ccccc2)C(=N)O1 (stereo not given)
 : -20	-7
CCCN(C(=O)c1cc(=O)c2cc(C)ccc2o1)C(C)C(=O)Nc1cccc(Cl)c1 (stereo not given)
 : -4	-2
Cc1cc(C(=O)NC2CCCN(CCCc3ccccc3)C2)c(C)o1 (stereo not given)
 : 3	-2
COc1ccc(S(=O)(=O)N2CCN(c3nc(-c4ccc(Cl)cc4)nc(C)c3Cc3ccccc3)CC2)cc1
 : -3	-3

Individual results from the list.
`COc1ccccc1C(=O)N1CCC(n2nccc2NC(=O)c2ccccc2C)CC1` in NPYLR7 ag max-min is entered as -3
`CCCN(C(=O)c1cc(=O)c2cc(C)ccc2o1)C(C)C(=O)Nc1cccc(Cl)c1` (stereo not given) in NPYLR7 ag max-min is entered as -2
`COc1ccc(N2C(=O)C3N=NN(Cc4cc(C)ccc4C)C3C2=O)cc1Cl` (stereo not given) in NPYLR7 ag is entered as 0

A different layout for part of the listing above.
Cc1cc(C)nc(N/N=C\c2ccccc2)n1
  NPYLR7 ag: -4; NPYLR7 ag max-min: -11

COc1cccc(C2CC(c3ccc(C)cc3C)=NN2C(=O)CN2CCc3ccccc3C2)c1 (stereo not given)
  NPYLR7 ag: 19; NPYLR7 ag max-min: 18

CC(C)N(Cc1cc(NC(=O)c2cccc(F)c2)ccc1N(C)C)C(=O)CC(C)(C)C
  NPYLR7 ag: 24; NPYLR7 ag max-min: 28

CCCOc1cccc(C(=O)N2CCC(Nc3cc(OC)cc(OC)c3)CC2)c1
  NPYLR7 ag: 0; NPYLR7 ag max-min: 1

(listing goes on)
Below each compound: NPYLR7 ag	NPYLR7 ag max-min
OC(Cc1ccccc1)CN(CCc1nc(-c2cccc(C(F)(F)F)c2)no1)Cc1ccco1 (stereo not given)
 : 4	5
CC(=O)c1cccc(NC(=O)c2cc3ccccc3oc2=O)c1
 : -4&-1	-7&5
COc1ccc(-c2ccc(OCCNS(=O)(=O)c3ccc(C)cc3C)nn2)cc1
 : -13	-18
CC1(C(=O)Nc2cccc3cccnc23)CCN1Cc1cccc2c1OCO2 (stereo not given)
 : 10	-1
O=C(NN=C1C(=O)c2cccc3cccc1c23)NC1CCCCC1
 : 15	55
COc1ccc(-c2cc(-c3ccc(OC)cc3)c(C#N)c(SCC(=O)O)n2)cc1
 : 13	9
CCC(C(=O)N1CCN(c2nc(C)nc(C)c2Cc2ccccc2F)CC1)c1ccccc1 (stereo not given)
 : 1	12
COC(=O)[C@@H]1Cc2ncn(C(C)C)c2CN1Cc1cccnc1
 : -11	-15
Cc1cc(-c2n[nH]c(=S)o2)c(C)n1-c1ccccc1
 : 0&-9	-1&-8
CC(C(=O)NC1(c2cccc(F)c2)CCOCC1)n1cccn1 (stereo not given)
 : 8&-2	3&4
O=C(CSc1nc(=O)n2cc(Cl)ccc2n1)Nc1ccccc1F
 : 3	1
Cc1cc2c(cc1CNC1CC(=O)N(Cc3cccc(F)c3)C1)OCO2 (stereo not given)
 : 3	1
NC(=O)NCC(=O)N1CCCC(CCc2ccccc2C(F)(F)F)C1 (stereo not given)
 : 9	6
Cc1cc(C)n(-c2cccc(-c3nccn3CCCn3ccnc3)c2)n1
 : 17	10
CC1=C(C(N)=O)C(c2ccc(C)o2)C(C(N)=O)=C(C)N1
 : 0	-1
CC(Cc1ccco1)NC(=O)NC1CCSc2ccccc21 (stereo not given)
 : 2	-2
CCNC(=O)O[C@H]1C(=O)N(C)C2(CCN(C(=O)c3ccc(Cl)cc3)CC2)[C@@H]1C(=O)NC
 : 24	27
Cc1cc(C(=O)CSc2nnc(C3CCCCC3)o2)c(C)n1C(C)C
 : -1	16
CSc1ncc(CNCc2ccncc2)c(N2CCOCC2)n1
 : 18	21
CCn1cc(NC(=O)N(C)CCC#N)c2ccccc21
 : 0	-3
COc1cccc2c1OCC(C(=O)N1Cc3cnn(CCO)c3C1)C2 (stereo not given)
 : 8	6
CN(CCc1cn[nH]c1)CC(=O)Nc1nc2ccccc2[nH]1
 : 0	-9
Cc1nonc1C(=O)N1CCC(=O)N(Cc2ccc(F)cc2)C(C(C)C)C1 (stereo not given)
 : 4	2
COc1ccc(C(=O)NN=Cc2cc(Br)ccc2O)cc1OC
 : 4	0
COCCNS(=O)(=O)c1ccc(OC)c(N2CCN(C(=O)c3ccc(F)cc3C(F)(F)F)CC2)c1
 : 5	3
CC1(C)CC(C)(C)c2nc3ccccc3nc21
 : 7	5
CCN(c1ccncc1)S(=O)(=O)c1ccc(S(C)(=O)=O)cc1
 : 0	-1
O=C(c1cccc(C(F)(F)F)c1)C1CCCN(Cc2cccc3nonc23)C1 (stereo not given)
 : 11	0
O=C(NC1CCCc2nc(-c3ccccc3)ncc21)c1cc[n+]([O-])cc1 (stereo not given)
 : 14	-1
CCC(C)NC(=O)c1cc(-c2ccc(OC)c(OC)c2)nc2ccccc12 (stereo not given)
 : 3	3

Some of these compounds in order of heavy-atom count, rising.
Below each compound: NPYLR7 ag	NPYLR7 ag max-min
CCCS(=O)(=O)N(C)C(=O)CCc1cccc(Cl)c1
 : 2	-2
CSc1ncc(CNCc2ccncc2)c(N2CCOCC2)n1
 : 18	21
CCCOc1cccc(C(=O)N2CCC(Nc3cc(OC)cc(OC)c3)CC2)c1
 : 0	1

(cont.)
Below each compound: NPYLR7 ag	NPYLR7 ag max-min
Cc1cccc(OCCS(=O)C(C)C(=O)Nc2ccc(C(C)(C)C)cc2)c1 (stereo not given)
 : 9	3
Cc1c(C)n2c3c(=O)n(C)c(=O)n(C)c3nc2n1CCC(C)C
 : -2	3
NCC1CN(Cc2cc(C#CCO)cs2)CCO1 (stereo not given)
 : -1	-6
COc1cc(/C=C2N=C(/C=C/c3cccc(Cl)c3Cl)OC/2=O)ccc1OC(C)=O
 : -2	-5
CCS(=O)(=O)N1CCC(NCc2c(C)nn(C)c2Cl)CC1
 : 5	3
Cc1nc(NCCN(C)CCc2ccccc2)c2cnn(C)c2n1
 : 9	8
CC(C)(C)c1ccc2c(c1)CC(CNC(=O)c1ccc(Cl)cc1Cl)O2 (stereo not given)
 : -11	3
O=C(C(c1ccccc1)n1cccc1)N1CCN(c2ncccn2)CC1 (stereo not given)
 : 4	3
CCOC(=O)C1=C(CCl)NC(=O)NC1c1ccccc1OC(F)F (stereo not given)
 : -6	-8
Cc1ccc(-c2cnn3c(Cl)cc(C(C)(C)C)nc23)cc1
 : -6	-10
CC(CCc1ccccc1)NC(=O)c1cc2n(n1)CCN(Cc1ccccc1)C2=O (stereo not given)
 : 10	14
CC(C)Sc1cc(NCCCO)c([N+](=O)[O-])c2nonc12
 : -1	-3
C=CCOC(=O)C1=C(C)NC(=O)NC1c1cccc([N+](=O)[O-])c1 (stereo not given)
 : 4	4
C=CCNC(=O)CSc1nc(O)cc(=O)[nH]1
 : 17	4
O=C1[C@@H]2C[C@H](O)CCN2C(=O)CN1Cc1cccc2[nH]ccc12
 : -10	-14
CC1CC(C)CN(C(=O)CN2C(=O)NC(C)(c3cc4ccccc4o3)C2=O)C1 (stereo not given)
 : 1	1
CC(C)(C)c1cc2nc(C(=O)NCc3ccc4c(c3)OCO4)cc(-c3ccccc3F)n2n1
 : 16&-15	12&-10
COCCN1CCCC(O)(CN(C)Cc2ccc3nonc3c2)C1=O (stereo not given)
 : 1	1
NS(=O)(=O)c1cccnc1NC1CCc2ccccc21 (stereo not given)
 : 2	-1
O=C(C(=O)N1CCc2[nH]nc(-c3cccc(F)c3)c2C1)c1ccco1
 : 21	15
Cc1noc(-c2ccc3c(c2)OCO3)c1C(=O)NCc1ccccn1
 : 12	9
CC1(C)Cc2ccccc2-c2nc(CN3CCCC3)[nH]c(=O)c21
 : -8	-11
CCCOCCN1CCN(C(=O)c2cnn3ccn(C)c23)CC1
 : 4	1
CC(C)Cn1ccc2cc(NC(=O)NCC(C)CC3(C)OCCO3)ccc21 (stereo not given)
 : 14	10
CCCN1C(=O)Oc2ccccc2C1c1ccc(O)cc1 (stereo not given)
 : -1	9
CCc1nc2c(OCc3ccc(OC)cc3)cccn2c1N(C)C(=O)c1ccc(OC)cc1
 : 21	21
O=S(=O)(c1ccc(F)cc1F)N1CCC(n2cc(CCCO)nn2)CC1
 : 1	5
CC(C)NC1CC(=O)N(Cc2ccccc2C(F)(F)F)C1 (stereo not given)
 : 5	2
CCOC(=O)C1=C(C)NC(=S)NC1c1cccc([N+](=O)[O-])c1 (stereo not given)
 : 1	7
CCOc1cccc2cc(-c3csc(Nc4ccccc4F)n3)c(=O)oc12
 : -2	-6
CCOc1ccc2oc(C)c(C(=O)NCC3CCN(C)C3)c2c1 (stereo not given)
 : -4	-7
C=CCN1CC(C(=O)N2CCN(c3nc(C)cc(C)n3)CC2)CC1=O (stereo not given)
 : 13	10
COC(=O)c1oc2ccccc2c1CNc1cccc(C#N)c1
 : 5	6
Cc1ccnc(-c2ccc(NCC(=O)N(C)Cc3ccco3)cc2)n1
 : -1	7
COC(=O)[C@@H]1C[C@H](NC(=O)CCNC(=O)c2ccc(F)cc2)CN1C
 : 7	7
O=C1CCC(C(=O)Nc2ccc(CN3CCc4ccccc43)cc2)CN1 (stereo not given)
 : 2	2
COCCNC(=O)c1c(O)nc2sccn2c1=O
 : -1	13
CCCc1cc(N2CCC(N3CCNC3=O)CC2)n2ncnc2n1
 : 0	2
Clc1ccc(Cc2nc(CSCc3cccs3)cs2)cc1Cl
 : 2	-2
COCCn1cc(NC(=O)NC(C)c2ccccc2)c2ccccc21 (stereo not given)
 : 12	4
COC(=O)c1ccc(CNC(=O)CN2[C@@H]3CC[C@H]2CC(O)C3)o1 (stereo not given in full)
 : -5	-9
Fc1ccccc1C1CCN(Cc2cc3n(n2)CCNC3)C1 (stereo not given)
 : 2	0
O=C(NC(c1ccc(F)cc1)c1cnccn1)C1CCN(CCCOc2ccccc2)CC1 (stereo not given)
 : 7	0

Screening results as filed in PubChem.

Some of the compounds tested, so the mix of outcomes need not match the whole.
